# pPAFAH inh: inhibitors of human plasma PAF acetylhydrolase (pPAFAH) | 330,000 tested, 1.5% active | recombinant pPAFAH, FP-rhodamine probe fluorescence polarization | Q13093 | AID 463082 | inhibition, % at 3.39 µM;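 active means inhibition above the mean inhibition across the screen plus 3 SD, cut at about 25% in these data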;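 further: inhibitors block binding of the rhodamine activity-based probe so polarization drops; 0% = enzyme with DMSO and 100% = wells lacking pPAFAH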
# Target sequence (Q13093 whole entry, looked up): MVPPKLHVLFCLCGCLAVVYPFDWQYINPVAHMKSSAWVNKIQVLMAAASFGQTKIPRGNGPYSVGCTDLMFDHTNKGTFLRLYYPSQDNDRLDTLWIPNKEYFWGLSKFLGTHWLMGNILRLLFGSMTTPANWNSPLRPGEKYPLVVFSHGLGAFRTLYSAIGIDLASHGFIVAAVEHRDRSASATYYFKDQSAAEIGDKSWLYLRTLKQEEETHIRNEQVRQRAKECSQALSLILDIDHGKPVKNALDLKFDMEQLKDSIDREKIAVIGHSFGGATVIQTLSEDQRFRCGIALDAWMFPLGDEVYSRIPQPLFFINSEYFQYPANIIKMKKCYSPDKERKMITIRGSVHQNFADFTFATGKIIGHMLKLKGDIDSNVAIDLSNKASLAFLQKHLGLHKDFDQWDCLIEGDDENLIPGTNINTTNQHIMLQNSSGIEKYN
# ZTA counter: ZTA (EBV) inhibition in EBNA-1 counter-screen | inhibition, % at 11 µM | 320,000 tested, 0.15% active | ZTA-DNA binding, fluorescence polarization; in the data active means inhibition above about 33%
# Target sequence (P03206 whole entry, looked up): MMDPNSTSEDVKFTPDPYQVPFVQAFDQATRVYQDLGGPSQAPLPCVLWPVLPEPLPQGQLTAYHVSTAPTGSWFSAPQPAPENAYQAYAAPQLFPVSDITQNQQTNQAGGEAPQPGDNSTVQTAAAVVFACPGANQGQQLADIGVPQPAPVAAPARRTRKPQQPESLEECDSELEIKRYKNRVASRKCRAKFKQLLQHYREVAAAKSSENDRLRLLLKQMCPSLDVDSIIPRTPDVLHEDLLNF
# PAFAH1B3 FP inh: PAFAH1B3 (human) inhibition | Q15102 | recombinant PAFAH1B3, FP-rhodamine probe, fluorescence polarization | inhibition, % at 3.39 µM | 340,000 tested, 0.28% active | AID 492972;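 active means inhibition above the screen-wide average of all tested compounds plus 3 SD, cut at about 25% in these data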;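 further: 0% = enzyme with DMSO only and 100% = wells lacking PAFAH1B3 protein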
# LYPLA1 inh: blocks human lysophospholipase 1, a PME1 counter-screen | O75608 | 320,000 tested, 0.16% active | recombinant LYPLA1, FP-Rh probe fluorescence polarization | AID 2174 | inhibition, % at 5.9 µM;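 active means inhibition above the mean of all tested compounds plus 3 SD, set per campaign, cut at about 14% in these data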;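 further: inhibitors block serine hydrolase probe labeling of LYPLA1 so polarization falls; 0% = enzyme with DMSO and 100% = wells lacking LYPLA1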
# Target sequence (O75608 whole entry, looked up): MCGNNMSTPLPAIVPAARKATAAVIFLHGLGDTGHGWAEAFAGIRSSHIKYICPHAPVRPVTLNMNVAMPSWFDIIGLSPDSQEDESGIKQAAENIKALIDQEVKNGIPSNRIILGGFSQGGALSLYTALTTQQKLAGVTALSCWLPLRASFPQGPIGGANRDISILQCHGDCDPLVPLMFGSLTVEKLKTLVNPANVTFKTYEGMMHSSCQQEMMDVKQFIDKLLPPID
# LYPLA2 inh: counter-screen for PME1 inhibitors: inhibitors of human LYPLA2; O95372; recombinant LYPLA2, FP-Rh probe fluorescence polarization; inhibition, % at 5.9 µM; 320,000 tested, 0.38% active; AID 2177;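 active means inhibition above the screen-wide mean plus 3 SD, limit set per campaign, cut at about 26% in these data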;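 further: 0% = LYPLA2 with DMSO and 100% = wells lacking LYPLA2 enzyme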
# PAFAH2 FP inh: PAFAH2 (human) inhibition; 340,000 tested, 0.99% active; recombinant PAFAH2, FP-rhodamine activity probe, fluorescence polarization; inhibition, % at 3.39 µM;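 active means inhibition above the mean over all tested compounds plus 3 SD, cut at about 30% in these data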;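 further: inhibitors block probe labeling of enzyme so polarization drops; 0% = enzyme with DMSO and 100% = wells lacking PAFAH2 protein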
# EBNA-1 inhibitor: blocks EBNA-1 binding to DNA. EBNA-1 DNA binding, fluorescence polarization. inhibition, % at 14.8 µM. 300,000 tested, 0.34% active; in the data active means inhibition above about 28%
# PREPL inh: inhibits the human prolyl oligopeptidase-like enzyme; Q4J6C6; recombinant PREPL, fluorescence polarization activity-based probe; inhibition, % at 5.96 µM; 320,000 tested, 0.68% active; AID 2751; in the data active means inhibition above about 43%;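 further: 0% = enzyme with DMSO and 100% = wells lacking enzyme; many of its hits are not listed in these tables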
# Starred values were filed as active, the others as inactive; · = not tested or not shown.
SMILES,pPAFAH inh,ZTA counter,PAFAH1B3 FP inh,LYPLA1 inh,LYPLA2 inh,PAFAH2 FP inh,EBNA-1 inhibitor,PREPL inh
O=c1c2ccccc2nc2n1C(CSCc1ccc(Cl)cc1)CS2 (configuration not stated),8,2,-2,3,3,-2,10,-9
O=c1[nH]c(C2CCCN(S(=O)(=O)c3ccccc3)C2)nc2c1nnn2Cc1cccc(Cl)c1 (configuration not stated),5,-6,0,-2,-1,1,-2,12
Cc1ccc(NS(=O)(=O)c2ccc3[nH]c(=O)c(=O)[nH]c3c2)cc1Cl,19,5,6,6,1,16,-1,-7
O=C(CC12CC3CC(CC(C3)C1)C2)Nc1ccc2c(c1)COC2=O,-2,-3,7,1,-1,-5,6,4
CCOC(=O)c1cnn(-c2nc(-c3cccc(F)c3)cs2)c1C(F)(F)F,2,10,3,-4,-1,-4,2,0
CC1(C)C2CCC1(CS(=O)(=O)NCc1ccc(Cl)cc1Cl)C(=O)C2 (configuration not stated),7,-18,7,-2,4,0,-14,16
COCCCn1c(=N)c(C(=O)NCc2ccc3c(c2)OCO3)cc2c(=O)n3ccccc3nc21,6,2,8,-3,3,2,8,39
CCC(NS(=O)(=O)c1cccs1)c1ccc(C)cc1 (configuration not stated),1,-9,6,-1,3,3,·,1
O=C(Nc1ccccc1N1CCCCC1)c1ncoc1-c1cccc(F)c1,7,9,4,-5,1,-3,2,-2
Cc1cccc(S(=O)(=O)NC(Cc2c[nH]c3ccccc23)C(=O)O)c1 (configuration not stated),-1,-2,1,0,-5,-4,-2,13
CC(C)(C)c1ccc(C(=O)NCCn2c(N)c(C#N)c3nc4ccccc4nc32)cc1,-2,0,4,-9,-3,-4,-10,7
Cc1cc(NC(=O)c2cccc(COc3ccc(Br)cc3)c2)no1,4,10,2,-7,4,0,15,3
CCOc1ccccc1CNS(=O)(=O)c1ccc2[nH]c(=O)sc2c1,5,-3,0,-1,7,2,-8,1
CCC(=O)N1CCc2cc(S(=O)(=O)NC(Cc3ccccc3)C(=O)Nc3nccs3)ccc21 (configuration not stated),0,-11,-3,1,0,-2,1,-11
CCCCc1c(C)nc2nc(SCc3ccc(Cl)cc3)[nH]n2c1=O,·,·,12,·,·,9,·,·
Cc1ccccc1OCC(=O)NC(Cc1c[nH]c2ccccc12)C(=O)O (configuration not stated),3,15,9,5,-3,3,9,13
CCOc1ccc(C(=O)OCC(=O)N2CCCC2)cc1,-3,-5,-3,3,-5,-6,4,4
COc1ccc2c(CC(=O)N[C@@H](Cc3ccccc3)C(=O)O)cc(=O)oc2c1C,·,·,10,·,·,6,·,·
Cc1c(C(=O)N2CCCc3ccccc32)oc2ccc(S(=O)(=O)N3CCOCC3)cc12,6,13,-5,1,11,-1,-6,0
O=C(O)c1cc(S(=O)(=O)NC23CC4CC(CC(C4)C2)C3)ccc1Cl,4,1,0,0,7,7,0,7
CCc1ccc([C@@H]2CC=C(C(=O)O)CN2S(=O)(=O)c2ccc(C)cc2)cc1,6,28,7,1,3,8,8,-3
CC(C)(C)c1ccc(C(CC(=O)O)NC(=O)Cc2ccc(Cl)cc2)cc1 (configuration not stated),8,-2,0,-4,-8,6,1,-2
CCCCc1cc(=O)oc2cc(OCC(=O)NC(Cc3c[nH]c4ccc(O)cc34)C(=O)O)ccc12 (configuration not stated),7,-24,-3,3,10,5,-1,17
O=S1(=O)CCOC[C@H](CC2CCCCC2)N1Cc1ccc(F)cc1,1,-5,12,1,6,-1,8,6
Cc1ccc(SCC(=O)OCC(=O)NC(C)c2ccc(F)cc2)cc1 (configuration not stated),22,-18,5,1,11,9,·,10
CC(C)C(NC(=O)CCNC(=O)c1ccc(C(C)(C)C)cc1)c1nc2ccccc2[nH]1 (configuration not stated),2,-12,-3,1,-3,0,·,11
N#Cc1ccc(S(=O)(=O)N2CCN(C(=O)[C@@H]3CCCN3C(=O)c3cccs3)CC2)cc1,1,-2,-7,0,4,0,·,9
O=C1C2C3CCCC3=C3CCCC3C2C(=O)N1c1ccc(F)cc1 (configuration not stated),3,16,-1,-2,6,0,14,-4
O=S(=O)(NCCSc1ccc(Cl)cc1)c1ccc(F)cc1,3,5,3,-3,-2,0,1,-41
O=C(Nc1ccccc1O)c1cccc(S(=O)(=O)N2CCOCC2)c1,-6,-1,-2,-2,-10,1,-13,11

# Full records, quoted from the list. Order of screens: pPAFAH inh, ZTA counter, PAFAH1B3 FP inh, LYPLA1 inh, LYPLA2 inh, PAFAH2 FP inh, EBNA-1 inhibitor, PREPL inh
# Record of CC(C)C(NC(=O)CCNC(=O)c1ccc(C(C)(C)C)cc1)c1nc2ccccc2[nH]1 (configuration not stated) = 2, -12, -3, 1, -3, 0, ·, 11
# Record of CC(C)(C)c1ccc(C(CC(=O)O)NC(=O)Cc2ccc(Cl)cc2)cc1 (configuration not stated) = 8, -2, 0, -4, -8, 6, 1, -2
# Record of COc1ccc2c(CC(=O)N[C@@H](Cc3ccccc3)C(=O)O)cc(=O)oc2c1C = ·, ·, 10, ·, ·, 6, ·, ·
# Record of Cc1ccccc1OCC(=O)NC(Cc1c[nH]c2ccccc12)C(=O)O (configuration not stated) = 3, 15, 9, 5, -3, 3, 9, 13
# Record of O=C(O)c1cc(S(=O)(=O)NC23CC4CC(CC(C4)C2)C3)ccc1Cl = 4, 1, 0, 0, 7, 7, 0, 7

# Continued.
SMILES,pPAFAH inh,ZTA counter,PAFAH1B3 FP inh,LYPLA1 inh,LYPLA2 inh,PAFAH2 FP inh,EBNA-1 inhibitor,PREPL inh
O=C(O)c1cnn(-c2nc(-c3ccc(Cl)cc3)cs2)c1C(F)(F)F,6,-7,-9,-2,1,0,-7,5
Cc1cc(=O)[nH]c(SCc2ccc(Cl)cc2)n1,-2,-10,5,1,1,4,-11,-5
Cc1ccc(S(=O)(=O)N2CCN(C(=O)COC(=O)/C=C/c3ccc(OC(F)F)cc3)CC2)cc1,·,·,3,·,·,1,·,·
CCOc1ccc(C(=O)CCC(=O)N2CCC(C(=O)OC)CC2)cc1,8,11,0,1,11,2,-2,1
Cc1c(CC(=O)O)c(=O)oc2cc(OCc3ccc(Cl)cc3)ccc12,3,2,11,-4,5,4,-16,25
Cc1cc(OCC(=O)NC(Cc2ccc(Cl)cc2)C(=O)O)c2c(C)c(C)c(=O)oc2c1 (configuration not stated),-9,9,10,-3,3,4,-8,5
CS(=O)(=O)N1CCN(c2nnc(-c3ccccc3)c3ccccc23)CC1,1,11,9,-5,3,12,12,11
CC(C)c1ccccc1NC(=S)N(C)C,3,-14,1,0,7,0,2,-2
O=C(NC1CS(=O)(=O)CC1NCc1ccccc1)c1ccccc1 (configuration not stated),6,8,4,3,5,1,10,19
O=C(O)c1ccc(NCCc2ccc(Cl)cc2)c([N+](=O)[O-])c1,9,-10,10,-2,10,9,-15,21
COc1ccc(S(=O)(=O)NNC(=O)C2Cc3c(ccc4ccccc34)O2)cc1 (configuration not stated),0,24,7,-8,-14,-2,-1,-35
Cc1ccc2nc(SC(C)C(=O)NCc3ccc4c(c3)OCO4)[nH]c2c1 (configuration not stated),2,12,8,-7,-6,-4,2,-9
COc1ccc(C(=O)NCC(C)(C)N2CCOCC2)cc1S(=O)(=O)NCc1ccc(Cl)cc1,·,·,11,·,·,-9,·,·
Cc1noc(C)c1CN1C(=O)NC2(CCCCCCC2)C1=O,-1,-3,7,0,1,6,5,-5
CC(NC(=O)CSCc1ccccc1Br)c1ccccc1 (configuration not stated),5,2,1,-3,8,5,9,3
Cc1ccc(OCc2nnc(NC(=O)c3cccnc3)s2)cc1,6,0,4,-1,4,3,8,19
O=C(O)c1ccc(CSc2nnc(-c3ccccc3)n2-c2ccccc2)cc1,4,15,6,2,0,4,4,-3
CC1Cc2ccccc2N1Cc1cc(=O)c(OCC(=O)NCCc2ccccc2)co1 (configuration not stated),10,-12,11,6,6,8,-15,8
COc1ccc(S(=O)(=O)N2CCCCCC2)cc1C(=O)N(C)CC(=O)Nc1ccccc1Br,4,-8,6,2,38*,-1,-2,-3
O=C(CN1CCCC1c1cccs1)N1CCN(S(=O)(=O)c2cccc(F)c2)CC1 (configuration not stated),2,-16,1,-4,-1,-2,·,24
O=C(O)C1(c2ccccc2)CCN(S(=O)(=O)c2ccc(Cl)cc2)CC1,1,7,0,0,2,-1,-4,-11
Cc1ccc(S(=O)(=O)N2[C@@H](c3ccccc3)C(C(=O)O)=CC[C@H]2c2ccc(Cl)c(Cl)c2)cc1,11,10,18,-3,-3,0,6,-2
CCOC(=O)c1c(NC(=O)CSc2nnnn2-c2ccccc2)sc2c1CCC(C)C2 (configuration not stated),1,11,1,-2,2,-7,2,-9
Clc1ccc(SCc2cn3cccnc3n2)cc1,2,-5,8,-4,1,0,9,-4
NS(=O)(=O)c1ccc(NC(=O)COC(=O)C2(c3ccc(F)cc3)CCCC2)cc1,-1,-1,-1,-5,-11,-3,-2,-14
CCc1nnc(NC(=O)c2cccs2)s1,5,-7,-5,-1,-1,2,-9,1
O=C1c2ccccc2C(=O)N1c1ncc(Cc2ccc(Cl)cc2)s1,7,10,13,-3,-1,-5,13,-4
CCC(=O)Nc1cc(C(=O)O)ccc1Sc1ccc(Cl)cc1,8,-17,-6,1,1,-2,-3,14
O=C(NCc1n[nH]c(=S)n1-c1cccc(C(F)(F)F)c1)c1ccc(S(=O)(=O)N2CCCCC2)cc1,3,-1,4,0,5,-3,0,5
CC1CCC(C(C)C)C(OC(=O)CSc2n[nH]c(=O)[nH]c2=O)C1 (configuration not stated),4,-17,1,-1,5,7,0,3

# 3 structures out of the list, arranged by molecular weight, largest number first:
SMILES,pPAFAH inh,ZTA counter,PAFAH1B3 FP inh,LYPLA1 inh,LYPLA2 inh,PAFAH2 FP inh,EBNA-1 inhibitor,PREPL inh
Cc1ccc(S(=O)(=O)N2[C@@H](c3ccccc3)C(C(=O)O)=CC[C@H]2c2ccc(Cl)c(Cl)c2)cc1,11,10,18,-3,-3,0,6,-2
O=C(O)c1ccc(CSc2nnc(-c3ccccc3)n2-c2ccccc2)cc1,4,15,6,2,0,4,4,-3
CCC(=O)Nc1cc(C(=O)O)ccc1Sc1ccc(Cl)cc1,8,-17,-6,1,1,-2,-3,14

# Going on with the list.
SMILES,pPAFAH inh,ZTA counter,PAFAH1B3 FP inh,LYPLA1 inh,LYPLA2 inh,PAFAH2 FP inh,EBNA-1 inhibitor,PREPL inh
O=C(NCCc1ccccc1)c1ccc2[nH]c(=O)c(=O)[nH]c2c1,11,3,8,3,-3,3,-6,13
O=c1oc2cc(O)ccc2cc1-c1ccccc1,5,-11,1,1,-1,3,-6,9
COc1ccc(C2=NOC(C(=O)NCc3ccc(F)cc3)C2)cc1 (configuration not stated),6,-10,-3,-2,0,4,-7,-8
C=CCN(c1ccccc1)S(=O)(=O)c1cccc(C(=O)O)c1,0,15,2,-3,-6,-5,6,-1
O=C(O)C(Cc1c[nH]c2ccccc12)NS(=O)(=O)c1cccc(Cl)c1Cl (configuration not stated),-2,-12,8,-4,1,0,-9,9
O=C(NCC1CCCO1)c1cccc(NS(=O)(=O)c2ccc(Br)cc2)c1 (configuration not stated),7,2,1,-4,-1,3,-1,-2
O=C(O)/C(=C\c1cn(-c2ccccc2)nc1-c1ccc(Cl)cc1)NC(=O)c1ccccc1,8,5,10,-4,-4,15,4,-9
Cc1ccc(S(=O)(=O)N2CCN(C(=O)COC(=O)/C=C/c3ccc(Cl)cc3)CC2)c(C)c1,·,·,1,·,·,5,·,·
O=C(NNC(=O)C1CCN(S(=O)(=O)c2ccc(Cl)cc2)CC1)c1ccccc1O,6,-4,8,-1,6,8,-5,0

# These rows are one share of the data; rates above refer to the full screens.
